Source: PubChem
Env fusion inh – inhibitors of HIV-1 Env-driven cell-cell fusion, primary screen, HeLa-JRFL effector, CEM21 target cells, luciferase. AID 651610, 2012. inhibition, % at 12.3 µM. 1.1% of 360,000 active;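 active = mean replicate inhibition score of at least 50 and every replicate individually at or above 50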;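 note: 0% = plate neutral controls and 100% = maraviroc near 300 nM; one replicate is shown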
Yeast UUG start – modulators of yeast start codon fidelity, primary screen, whole organism, S. cerevisiae, single point, plate reader; S. cerevisiae UUG-firefly luciferase reporter, luminescence/redox ratio; activity score, % at 18.7 µM; 0.13% of 350,000 active;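 active = replicate mean at a twofold rise or more, about +100% in these data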;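 note: firefly luciferase made from a UUG start codon reports start codon fidelity; reporter light over untreated wells divided by growth signal over untreated wells; some hits fall short of that in this replicate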
CSC inhib – cancer stem cell viability inhibitors, primary screen, luminescence; cancer stem cell-like cells viability; inhibition, % at 7.5 µM; 1.1% of 300,000 active; AID 2717, 2010;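 active = mean at 75% or more and at least half the replicates too; tested in HMLE shEcad cells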;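 note: 0% = median of negative and 100% = median of positive control wells; the first replicate is given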
MT1-MMP act inh – blockers of MT1-MMP proenzyme processing, primary screen, HT1080 RFP-PRO-GFP cells, GFP/RFP fluorescence | 0.061% of 360,000 active | GFP/RFP ratio change, % at 20 µM | GFP/RFP ratio fluorescence, overnight; percent of plate control window, DMSO zero;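 active = GFP/RFP ratio change of at least 30% with cell ATP level not reduced by more than half and red fluorescence within 50% of control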; note: strong numbers were not always called active
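system = RFP-PRO-GFP reporter HT1080 cells | dosing = 20 µM single dose, 1% DMSO | timing = overnight cell settling, then overnight compound exposure, 37 °C, 5% CO2 | read-out basis = GFP/RFP fluorescence ratio | controls = DMSO and RFP-L50D-GFP cell wells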
Rce1 inh – yeast Rce1p protease inhibitors, primary screen, biochemical, fluorescence, cell-free homogeneous; CAAX prenyl protease 2 (Saccharomyces cerevisiae (strain ATCC 204508 / S288c)), Q03530; yeast membranes, quenched prenylated peptide cleavage fluorescence; calls only; 0.27% of 290,000 active; AID 2563, 2010;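 active = fall in fluorescence gain of 50% or more versus controls, with final raw signal at or below 3038400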;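 note: plate controls were neutral control wells for no effect and wells lacking membranes for full effect; tested at 10 µM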
eIF4H FP inh – human eIF4H binding inhibitors, primary screen, translation initiation inhibitor project, biochemical, uHTS, fluorescence polarization. 0.94% of 290,000 active. inhibition, % at 35 µM. AID 2012, 2009. eIF4H fluorescence polarization binding assay. Eukaryotic translation initiation factor 4H (Homo sapiens), Q15056;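 active = 50% or more with normal probe brightness, or confirmed in later tests; about a fifth of its hits are not listed in these tables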;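 note: calls also rest on retests at 20 µM and on dose response follow-up; 0% = protein and probe with vehicle and 100% = probe without protein; strong numbers were not always called active; many hits fall short of the cut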
PABP FP inh – PABP poly(A) RNA binding inhibitors, primary screen, biochemical, fluorescence polarization, uHTS | AID 2014, 2009 | 1% of 290,000 active | inhibition, % at 35 µM | Polyadenylate-binding protein 1 (Homo sapiens), P11940;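 active = 50% or more with normal probe brightness, or confirmed in later tests; about a fifth of its hits are not listed in these tables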;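 note: calls also rest on retests at 20 µM and on dose response follow-up; controls were probe without protein and protein plus probe with vehicle; some compounds called inactive have numbers as strong as hits; many hits fall short of the cut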
Target sequence (P11940 whole entry, looked up): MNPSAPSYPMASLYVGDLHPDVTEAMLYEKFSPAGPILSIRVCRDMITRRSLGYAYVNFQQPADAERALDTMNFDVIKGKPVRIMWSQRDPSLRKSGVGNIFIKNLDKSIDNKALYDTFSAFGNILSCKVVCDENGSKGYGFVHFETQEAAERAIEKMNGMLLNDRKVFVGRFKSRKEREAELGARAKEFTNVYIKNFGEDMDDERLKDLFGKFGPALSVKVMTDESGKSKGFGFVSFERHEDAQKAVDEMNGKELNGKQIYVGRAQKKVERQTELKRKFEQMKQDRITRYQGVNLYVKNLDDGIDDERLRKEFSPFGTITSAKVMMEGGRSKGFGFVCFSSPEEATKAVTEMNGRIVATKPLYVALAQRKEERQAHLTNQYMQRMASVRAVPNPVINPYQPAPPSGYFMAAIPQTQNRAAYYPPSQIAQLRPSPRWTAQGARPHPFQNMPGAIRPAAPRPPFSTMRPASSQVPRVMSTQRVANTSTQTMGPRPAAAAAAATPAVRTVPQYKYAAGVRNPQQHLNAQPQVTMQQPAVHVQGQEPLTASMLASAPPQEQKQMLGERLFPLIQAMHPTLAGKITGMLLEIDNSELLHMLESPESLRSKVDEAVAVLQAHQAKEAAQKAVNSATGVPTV
MT1-MMP act inh RFP – recorded beside MT1-MMP act inh, whose call it bears; RFP signal change, %; measured here: RFP expression control read;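 0 = vehicle wells; hits needed this value within 50% of zero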
The depositor's hits bear a star; i = inactive; · = not tested or not shown.

SMILES	Env fusion inh	Yeast UUG start	CSC inhib	MT1-MMP act inh	MT1-MMP act inh RFP	Rce1 inh	eIF4H FP inh	PABP FP inh
O=C(CCc1ccccc1)NNC(=O)COc1ccc(Br)cc1	-1	-6	·	3	3	i	-9	6
Cc1cc(Br)ccc1NC(=O)CN(C)C(=O)CN1C(=O)NC(C)(C2CC2)C1=O (centres undefined)	-7	-2	·	2	1	·	·	·
COc1c(C(=O)Nc2ccc(Cc3ccncc3)cc2)ccc2ccccc12	-159	-9	54	3	-23	i	-2	5
O=C(CCn1nnnc1CN1CCOCC1)N1CCC(c2ccccc2F)C1 (centres undefined)	-8	-9	0	1	0	i	-9	3
O=c1c2ccccc2nc(/C=C/c2ccccc2)n1CCc1ccccc1	-6	·	16	-1	3	i	-6	4
CCOc1ccc(CN(C)C(=O)c2cc3ccccc3o2)cc1OC	-4	-8	·	-2	-5	i	-7	-1
CCOC(=O)c1c(CSc2ccccc2)n(C)c2cc(Br)c(OC)c(O)c12	19	-9	35	-3	-7	i	3	5
Cc1ccc(N2C(=O)/C(=C\c3ccc(C(C)C)cc3)N=C2SC2CCOC2=O)cc1 (centres undefined)	-11	-19	0	3	0	i	1	0
Nc1ccc(-c2nnn(Cc3ccccc3)n2)cc1	-27	-7	·	1	1	·	·	·
Cc1cc([N+](=O)[O-])nn1CC(=O)N1c2ccccc2CC1C (centres undefined)	·	·	3	-2	1	i	-5	-1
COCc1c(C(=O)N/N=C/c2cccc3ccccc23)nnn1-c1nonc1N	14	-5	-2	3	0	i	-8	4
CSc1ccc(NC(=O)N2CC=C(n3c(=O)[nH]c4ccccc43)CC2)cc1	-145	-2	-8	14	-12	i	-6	-3
O=C(O)CC(NC(=O)C12CC3CC(CC(C3)C1)C2)c1cc([N+](=O)[O-])ccc1Cl (centres undefined)	-2	·	-12	5	1	i	1	8
Cc1ccc(-c2nc3ncccc3o2)cc1NC(=O)C(C)(C)C	-8	-2	-10	0	1	i	-7	-2
Cc1nn(-c2ccccc2)c(C)c1C(=O)OC(C)C(=O)Nc1ccc(C(N)=O)cc1 (centres undefined)	5	-10	-9	2	-3	·	·	·
O=C(Nc1ccccc1)Nc1ccc2ccccc2c1	-26	·	8	1	0	i	-7	-15
CCN(C(=O)COC(=O)CCC1CCCC1)c1c(N)n(Cc2ccccc2)c(=O)[nH]c1=O	6	-11	·	0	3	·	·	·
O=S(=O)(N[C@@H]1C[C@H]2CC[C@@H]1C2)c1cccs1	·	-21	-5	-2	-4	i	0	12
C/C(=N\N=c1/scc(C)n1Cc1ccco1)c1cccc([N+](=O)[O-])c1	14	·	15	1	7	i	9	1
Cc1[nH]c(=O)[nH]c(=O)c1S(=O)(=O)N1CCCCC1	-14	-17	-5	0	2	i	4	7
COc1ccc(Nc2nc(OC)nc(N3CCN(c4ccc(OC)cc4)CC3)n2)cc1	2	-9	·	13	2	i	-4	0
CC1(C)Oc2ccc3ccc(=O)oc3c2/C(=C/NCCO)C1=O	·	-3	-8	1	6	i	-1	52*
O=C(N[C@@H](Cc1ccccc1)C(=O)O)c1cccnc1	8	-23	-12	0	9	i	4	18
CCOC(=O)c1nc2ccc(C)cc2c2c1C1CC(c3c(Cl)cccc31)N2C(=O)OCc1ccccc1 (centres undefined)	46	-9	·	-13	-19	·	·	·
O=C(COC(=O)c1cc(-c2cccs2)nn1-c1ccccc1)Nc1cccc([N+](=O)[O-])c1	23	-15	-1	-6	2	i	-3	-8
CCOc1ccc(/C=C/C(=O)N(CC)CC(=O)Nc2ccc3c(c2)OCCO3)cc1OCC	·	-7	-5	-3	-5	i	-1	-5
COc1ccc(NC(C)=O)cc1S(=O)(=O)NCc1ccc2c(c1)OCO2	6	-12	·	2	5	·	·	·
C=C1CCN([C@@H](CC(C)C)C(=O)Nc2ccc(OC)cc2)S(=O)(=O)c2ccccc21	102*	-17	-7	2	-4	i	·	·
CN(C)CCCCCNCCCNC(=O)/C=N\O	·	-40	-8	-1	4	i	-5	17
O=C(CSc1ncnc2c1nnn2-c1ccc(F)cc1)NCc1ccco1	·	-12	2	0	4	i	-1	-12
O=C(c1ccco1)N1CCN(C2CC(=O)N(c3ccc(F)c(Cl)c3)C2=O)CC1 (centres undefined)	-1	-9	-2	2	3	i	-6	-8
CCOC(=O)c1cc(-c2ccc(C)o2)nn1CCC#N	·	0	-8	0	1	i	-6	8
CCOc1ccc(Br)cc1-c1noc(-c2cccs2)n1	·	-2	11	2	4	i	-3	-2
Cc1ccc(NC(=O)c2oc3ccccc3c2COC(C)C)cc1S(=O)(=O)N1CCOCC1	5	-15	-16	3	-10	·	·	·
O=C(Nc1cccc([N+](=O)[O-])c1)C1C2CC/C=C\CCC21 (centres undefined)	6	-21	6	3	-1	i	-12	-7
Cc1[nH]c2ccccc2c1CCN(Cc1cccnc1)C(=S)Nc1ccc(F)cc1	-26	-10	-2	0	-4	i	3	4
CCC1(CC)C(=O)C(C)(C)C(=O)OC1c1ccccn1 (centres undefined)	·	-6	-9	5	9	i	1	3
Cc1cc2cc(CN(CC3CCCO3)C(=O)c3cnccn3)c(=O)[nH]c2cc1C (centres undefined)	·	6	-4	0	-1	i	-6	-5
O=C(CN1CCN(c2ccccn2)CC1)N1c2ccccc2CCc2ccccc21	-91	3	-9	-1	-2	i	4	-6
CCOCCCNC(=O)/C(C#N)=C/c1ccc(-c2ccc(S(=O)(=O)N3CCOCC3)cc2)o1	·	16	10	-7	-10	i	5	-6
CCC(C(=O)Nc1nc(C)cs1)c1ccccc1 (centres undefined)	-51	2	-3	-4	-5	i	-9	0
CCOc1cc2c(cc1OCC)C(C(=O)O)C(c1ccc(OC)c(O)c1)N(C)C2=O (centres undefined)	19	10	-19	2	6	i	1	20
NC(=O)c1cc(S(=O)(=O)Nc2ccc(OC(F)(F)F)cc2)cs1	7	-14	-10	2	-10	i	-4	7
CC(C)/C(=N/Nc1ccccc1[N+](=O)[O-])c1ccccc1	-4	-11	46	3	-6	i	6	-4
CC(=O)Nc1ccc(NC(=O)CSc2ccccn2)cc1	15	-9	-26	2	6	i	-5	0
COCCNC(=O)/C(C#N)=C/c1nc(N(C)C)n(-c2ccc(F)cc2)c1Cl	-9	-3	-9	0	-3	i	9	-9
COc1ccc([N+](=O)[O-])cc1NC(=O)c1cn(-c2ccc(Cl)cc2)c(=O)c2ccccc12	43	-19	-10	-2	-4	i	-12	12
COc1ccc(NC(=O)CCSc2ccc3ccccc3n2)cc1	-15	-19	14	3	4	i	-6	13
Cc1c(C(=S)Nc2ccccc2)cnn1-c1ccc([N+](=O)[O-])cc1	-22	-3	5	1	-8	i	-6	11
CCN(CC)CCCCCCCCOC(=O)c1cc(OC)c(OC)c(OC)c1	-7	-22	35	4	2	·	·	·
CCN(CC)C(=O)C1=C(C)N(CCCOC)C(=O)C(CC(=O)NC2CCCC2)C1 (centres undefined)	-29	8	·	-2	6	·	·	·
CCN(CC)C(=O)C(=O)Nc1cc(C(F)(F)F)ccc1Cl	-14	-23	-6	0	1	i	-8	-11
O=C(c1ccc(-c2ccccc2Cl)o1)N1CCCCCCC1	-51	-5	·	-8	-9	·	·	·
COc1cc(OC)cc(-c2nnc(SCc3cccnc3)o2)c1	·	-16	8	-3	1	i	6	1
CC1(c2ccc(OC(F)F)cc2)NC(=O)N(CC(=O)Nc2cccc(F)c2)C1=O (centres undefined)	-42	-4	-4	3	-3	i	-2	0
COc1ccccc1/C=C\C=N\n1c(-c2ccc(Cl)cc2Cl)n[nH]c1=S	-31	·	-4	4	7	i	14	4
COc1ccc(NC(=O)C(=O)NNC(=O)COc2ccc(Cl)cc2)c(OC)c1	6	-23	-2	0	0	i	-1	6
Cc1c(NC(=O)CSc2nnc(-c3ccccc3F)o2)c(=O)n(-c2ccccc2)n1C	19	-3	·	3	1	·	·	·
O=C(CN1CCCCCC1)Nc1c(Cl)cc(Cl)cc1Cl	-10	-7	·	9	-1	i	1	-5
COc1cccc(Oc2ccc(C(F)(F)F)cc2N)c1	8	·	5	0	-3	i	2	3

Entries above that have a nitro group on carbon:
SMILES	Env fusion inh	Yeast UUG start	CSC inhib	MT1-MMP act inh	MT1-MMP act inh RFP	Rce1 inh	eIF4H FP inh	PABP FP inh
Cc1cc([N+](=O)[O-])nn1CC(=O)N1c2ccccc2CC1C (centres undefined)	·	·	3	-2	1	i	-5	-1
O=C(O)CC(NC(=O)C12CC3CC(CC(C3)C1)C2)c1cc([N+](=O)[O-])ccc1Cl (centres undefined)	-2	·	-12	5	1	i	1	8
C/C(=N\N=c1/scc(C)n1Cc1ccco1)c1cccc([N+](=O)[O-])c1	14	·	15	1	7	i	9	1
O=C(COC(=O)c1cc(-c2cccs2)nn1-c1ccccc1)Nc1cccc([N+](=O)[O-])c1	23	-15	-1	-6	2	i	-3	-8
O=C(Nc1cccc([N+](=O)[O-])c1)C1C2CC/C=C\CCC21 (centres undefined)	6	-21	6	3	-1	i	-12	-7
CC(C)/C(=N/Nc1ccccc1[N+](=O)[O-])c1ccccc1	-4	-11	46	3	-6	i	6	-4
COc1ccc([N+](=O)[O-])cc1NC(=O)c1cn(-c2ccc(Cl)cc2)c(=O)c2ccccc12	43	-19	-10	-2	-4	i	-12	12
Cc1c(C(=S)Nc2ccccc2)cnn1-c1ccc([N+](=O)[O-])cc1	-22	-3	5	1	-8	i	-6	11

New compounds follow:
SMILES	Env fusion inh	Yeast UUG start	CSC inhib	MT1-MMP act inh	MT1-MMP act inh RFP	Rce1 inh	eIF4H FP inh	PABP FP inh
C=C(C)c1cccc(C(C)(C)NC(=O)Nc2ccccc2OCC)c1	-22	·	-2	1	0	i	-12	1
Cc1cccc(NC(=O)CN2C(=O)NC3(CCCCCCC3)C2=O)c1C	-3	10	-12	12	0	·	·	·
Cc1ccc(NC(=S)NC(NC(=O)c2ccccc2C)C(Cl)(Cl)Cl)c(C)c1 (centres undefined)	-90	11	25	-1	-4	i	5	-4
COc1ccc(CNc2nc3nc(C)c(Cl)c(C)n3n2)cc1	-22	-11	-7	7	0	i	2	27
CCOC(=O)c1c(O)c2ccccc2n(CC)c1=O	4	·	1	0	3	i	-12	3
Cc1cc(C)cc(SCc2noc(C(=O)NCCC(C)C)c2C(=O)NCCC(C)C)c1	16	-3	17	-5	-7	i	·	·

This is a subset; the hit share may differ from the screen's.
